Screens as filed in PubChem BioAssay.
nsP2pro primary – CHIKV nsP2 protease inhibition, primary qHTS. FRET peptide cleavage, nsP2pro, fluorescence 1 h. Potency, µM (doses to about 24.9 µM), for the others: top-dose activity change, negative = inhibition, usual class: inhibitors. 31,000 tested, 1.1% active; active means well fitted inhibition curve with a large enough effect; inconclusive means small, poorly fitted or top-dose-only effect; inactive means no such curve, though single readings can be large or run the other way; also: nearly all actives have a fitted effect of over 60% in size; a reference inhibitor and vehicle were the controls
* = called active by the depositor; i = inactive; ? = inconclusive; & = joins results of further samples; [ ] = another dose, or the depositor's remark. % is scaled to controls: 0 for no effect and ±100 for the full control effect; potency is read from the fitted curve at half-maximal effect. The list is partial; count on the stated rates, not on these rows.

compound: CCOC(=O)[C@H]1C[C@]2(CCCCNC2=O)N(C(=O)c2cccc(OC)c2)[C@H]1c1ccco1
  nsP2pro primary: ?
compound: CC1=C[C@@H](CO)[C@H](C(C)C)C[C@H]1CC(=O)NCc1cc(F)cc(F)c1
  nsP2pro primary: 2%[39.2 µM]
compound: Cc1ccc(C)c(N(C)S(=O)(=O)c2ccc3[nH]cc(C(=O)NC4CCCC4)c(=O)c3c2)c1
  nsP2pro primary: -13%
compound: Cc1nn(CC(=O)Nc2ccccc2F)c(=O)c2c(C)n(-c3ccc(Cl)cc3)nc12
  nsP2pro primary: -20%
compound: COc1ccc(/C=C\C(=O)NC2CC(=O)N(c3ccc(F)cc3)C2)cc1OC (stereo not drawn)
  nsP2pro primary: -11%
compound: C=CCC1(C(=O)O)CCCN(C(=O)c2cnn3c2CCCC3)C1 (stereo not drawn)
  nsP2pro primary: 1%
compound: CC(=O)O[C@@H]1CC[C@@]2(C)[C@H](CC[C@@H]3[C@@H]2C[C@H](OC(C)=O)[C@]2(C)[C@@H](C(C)=O)CC[C@@H]32)C1
  nsP2pro primary: 3%
compound: CCc1ccc(NS(=O)(=O)c2[nH]ncc2C(=O)OC)cc1
  nsP2pro primary: 10µM*
compound: COc1ccc(/C=C(\C#N)c2nc(-c3cc(Cl)ccc3OC)cs2)cc1
  nsP2pro primary: -20%
compound: c1ccc(O[C@H]2COCCN(Cc3cccc4c3OCO4)C2)cc1
  nsP2pro primary: i
compound: CC(C)N(CCCCOCC(=O)O)c1cnc(-c2ccccc2)c(-c2ccccc2)n1
  nsP2pro primary: 26%
compound: O=C(N[C@@H]1CN(C(=O)Nc2ccc(F)cc2)CCC[C@H]1O)c1ccc(OCCN2CCCC2)cc1
  nsP2pro primary: i
compound: CN1C[C@H](C(=O)N[C@]2(C)O[C@@]3(O)[C@@H]4CCCN4C(=O)[C@H](Cc4ccccc4)N3C2=O)C[C@@H]2c3cccc4[nH]cc(c34)C[C@H]21
  nsP2pro primary: -4%
compound: CC(C)=CCC/C(C)=C/CO[C@@H]1O[C@H](CO[C@@H]2OC[C@](O)(CO)[C@H]2O)[C@@H](O)[C@H](O)[C@H]1O
  nsP2pro primary: -9%[10 µM]
compound: COc1ccccc1C(=O)Nc1ccccc1SCc1cc(=O)c2ccccc2[nH]1
  nsP2pro primary: -8%
compound: O=[S+]([O-])(c1ccncc1)c1nnn2c1nc(NCc1ccncc1)c1ccccc12
  nsP2pro primary: i
compound: CCc1cccc(-n2nnnc2N2CCN(C(=O)NC(C)c3ccccc3)CC2)c1 (stereo not drawn)
  nsP2pro primary: 2%
compound: O=C(NC1CN(c2ccnc3ccnn23)C1)c1ccc(Cl)nc1
  nsP2pro primary: 0%
compound: Cc1ccc(Cl)c2sc(NC(=O)c3ccc(S(=O)(=O)N4CCCC4)cc3)nc12
  nsP2pro primary: -17%
compound: O=C(Nc1cccc(Nc2cc(Nc3cccc(C(F)(F)F)c3)ncn2)c1)C1CC1
  nsP2pro primary: 40%[activator]
compound: CCc1ccccc1NC(=O)Cn1c(=O)n(Cc2ccc3c(c2)OCO3)c(=O)c2ccc(C(=O)NC3CCCCC3)cc21
  nsP2pro primary: -16%
compound: Cc1nnc(NCc2ccccc2)c2c1nnn2Cc1ccc(F)cc1
  nsP2pro primary: -17%
compound: O=C(CCc1ccccc1)NCC1CCCCC(=O)N1 (stereo not drawn)
  nsP2pro primary: i
compound: COc1ccc2cc3cc(C(=O)NCCc4ccccc4)sc3nc2c1Cl
  nsP2pro primary: -16%
compound: CCc1ccccc1NC(=O)N1CC(C)Sc2ccccc21 (stereo not drawn)
  nsP2pro primary: -3%

Rewritten with tabs: two of the compounds above
SMILES	nsP2pro primary
Cc1ccc(Cl)c2sc(NC(=O)c3ccc(S(=O)(=O)N4CCCC4)cc3)nc12	-17%
O=C(Nc1cccc(Nc2cc(Nc3cccc(C(F)(F)F)c3)ncn2)c1)C1CC1	40%[activator]

(more compounds)
compound: COc1ccc(-c2nnc(SCC(=O)Nc3c(C)cccc3C)nc2-c2ccc(OC)cc2)cc1
  nsP2pro primary: -25%
compound: CC(C)OC(=O)C1=CN(C(=O)c2ccc(F)c(F)c2)CC(C)(C)c2c1[nH]c1ccccc21
  nsP2pro primary: ?
compound: Cc1cc(Nc2nc(-c3ccccc3)nc3ccccc23)n[nH]1
  nsP2pro primary: 81%[activator]
compound: CCCCCC1CCC(C(=O)Nc2ccc(S(=O)(=O)Nc3nccs3)cc2)CC1 (stereo not drawn)
  nsP2pro primary: i
compound: Cc1ccc(-c2nc3cccc(C)n3c2Nc2ccc3c(c2)OCCO3)cc1
  nsP2pro primary: 89%[activator]
compound: COC(CCc1ccc(O)cc1)CC(=O)CCc1ccc(O)cc1 (stereo not drawn)
  nsP2pro primary: ?
compound: COc1ccc(C2=CC(c3ccc(F)cc3)n3ncc(C(=O)Nc4ccc(C)cc4)c3N2)cc1 (stereo not drawn)
  nsP2pro primary: -21%
compound: CCc1cccc(C)c1NC(=O)C1=C(C)C(=O)OC12CCC(C)CC2 (stereo not drawn)
  nsP2pro primary: -19%
compound: Cc1nnc2n1-c1sc(Br)cc1C(c1ccccc1Cl)=NC2
  nsP2pro primary: 8%
compound: CC1(C)CC2C(C1)C(C)(O)C13CC1(COC3=O)C2O (stereo not drawn)
  nsP2pro primary: -2%
compound: O=C(OCC#CCSc1nnc(-c2cccc3ccccc23)o1)c1ccc(F)nc1
  nsP2pro primary: -1%
compound: CCCCN(Cc1ccccc1)C(=O)c1oc(=O)c2ccccc2c1-c1ccc(C)cc1
  nsP2pro primary: -20%
compound: c1cc2c(cc1N1CCC(N3CCC4(CCNCC4)C3)CC1)OCO2
  nsP2pro primary: -9%
compound: CCCn1c(=N)n(CC(O)COc2ccccc2OC)c2ccccc21 (stereo not drawn)
  nsP2pro primary: ?
compound: Cc1cc(C)nc(NC(=S)N2CCN(c3cnc4nccn4c3)CC2)c1
  nsP2pro primary: -10%
compound: COC(=O)NCCNC(=O)c1cccc(-c2ccc(SC)cc2)c1
  nsP2pro primary: -8%
compound: Cc1cn2nc(C(=O)Nc3cccc(F)c3C)cc2c(N2CCCC2)n1
  nsP2pro primary: 2%
compound: CC1=C(C(=O)Nc2nc3ccccc3s2)C(c2[nH]ncc2Cl)N=C(Nc2nc3ccccc3o2)N1 (stereo not drawn)
  nsP2pro primary: 5%
compound: CC(=O)[C@H]1CCC2C3CCC4=CC(=O)CC[C@]4(C)C3[C@H](O)C[C@@]21C (stereo partly drawn)
  nsP2pro primary: 5%
compound: COc1ccc(C)cc1N(CC(=O)N1CCC(C)CC1)S(=O)(=O)c1ccc(C)cc1
  nsP2pro primary: -24%
compound: COCCn1c(SCC(=O)c2ccc(OC)cc2)nc2cc(C(=O)NC3CCCC3)ccc2c1=O
  nsP2pro primary: -14%
compound: Cn1nc(C(C)(C)C)cc1C(=O)N[C@@H](Cc1cccc(Cl)c1)C(=O)NCC#N
  nsP2pro primary: 1%&-8%
compound: Cc1sc2c(c1C)C(c1ccc(Cl)cc1)=N[C@@H](CC(=O)Nc1ccc(OCCOCCOCCOCCNc3cccc4c3C(=O)N(C3CCC(=O)NC3=O)C4=O)cc1)c1nnc(C)n1-2 (stereo partly drawn)
  nsP2pro primary: 1%[10 µM]
compound: O[C@H]1[C@H]2c3cc4c(cc3CN3CCC(=C[C@@H]1O)[C@H]23)OCO4
  nsP2pro primary: ?
compound: N#Cc1nc(/C=C/c2ccc(F)cc2)oc1NC1CCCCC1
  nsP2pro primary: -17%

Brought forward from above: three compounds, followed by the next part.
compound: Cc1sc2c(c1C)C(c1ccc(Cl)cc1)=N[C@@H](CC(=O)Nc1ccc(OCCOCCOCCOCCNc3cccc4c3C(=O)N(C3CCC(=O)NC3=O)C4=O)cc1)c1nnc(C)n1-2 (stereo partly drawn)
  nsP2pro primary: 1%[10 µM]
compound: O[C@H]1[C@H]2c3cc4c(cc3CN3CCC(=C[C@@H]1O)[C@H]23)OCO4
  nsP2pro primary: ?
compound: N#Cc1nc(/C=C/c2ccc(F)cc2)oc1NC1CCCCC1
  nsP2pro primary: -17%
compound: CCOc1ccc(CNC(=O)Cc2ccc(NC(=O)N3CCCCc4ccccc43)cc2)cc1OC
  nsP2pro primary: 5%
compound: Cc1nc(NCc2ccccc2)c2nc(-c3ccccc3)n(CCN3CCCCC3)c2n1
  nsP2pro primary: i
compound: C#CCOc1cc(C2=Nn3c(nnc3-c3cccc(OCC(C)=O)c3)SC2)ccc1OC
  nsP2pro primary: i
compound: Cc1ccc2sc(NC(=O)c3ccc4c(c3)OCCO4)nc2c1C
  nsP2pro primary: 10%
compound: CC(C)CCNC(=O)C1CCCN(C2CCN(CCc3ccccc3)CC2)C1 (stereo not drawn)
  nsP2pro primary: 4%
compound: CCOCCn1c(=O)n(Cc2cc(OC)ccn2)c2cc(C(=O)O)cnc21
  nsP2pro primary: 1%
compound: O=S(=O)(NCCNC/C=C/c1ccc(Br)cc1)c1cccc2cnccc12
  nsP2pro primary: 9%
compound: Cc1ccc(-n2ncc3c2CC(C)(C)CC3NS(=O)(=O)c2cn(C)cn2)cc1 (stereo not drawn)
  nsP2pro primary: -2%
compound: COCc1cc(CNC(=O)CC(c2ccccc2)c2ccccc2Cl)[nH]n1 (stereo not drawn)
  nsP2pro primary: -1%
compound: c1ccc2[nH]c(-c3ccc(NCc4ccc5c(c4)OCCO5)cc3)nc2c1
  nsP2pro primary: -8%
compound: CC[C@]1(O)C[C@H]2CN(CCC3=c4ccccc4=N[C]3[C@@](C(=O)OC)(c3cc4c(cc3OC)N(C)[C@H]3[C@@](O)(C(N)=O)[C@H](O)[C@]5(CC)C=CCN6CC[C@]43[C@@H]65)C2)C1
  nsP2pro primary: 8%
compound: C=C1C(=O)O[C@@H]2C=C(COC(C)=O)CC/C=C(\CO)CC[C@@H]12
  nsP2pro primary: -1%
compound: NC(=O)C1CCN(c2ncc(-c3ccc4c(c3)OC(F)(F)O4)s2)CC1
  nsP2pro primary: 1%
compound: O=c1oc2ccc3ccccc3c2cc1-c1nnc(Nc2cc(C(F)(F)F)ccc2Cl)s1
  nsP2pro primary: -7%
compound: N#Cc1nc(NCCO)nc(Nc2ccccc2)n1
  nsP2pro primary: i
compound: COc1ccc(C2Nc3ccccc3C(=O)N2Cc2cccnc2)cc1COc1ccc(NC(C)=O)cc1 (stereo not drawn)
  nsP2pro primary: 1%
compound: O=C(NCc1ccc(F)cc1)N1CCC(OC2CCN(Cc3ccccc3)CC2)CC1
  nsP2pro primary: -3%
compound: O=C(O)c1cccc(-c2noc(-c3cccc(F)c3)n2)c1
  nsP2pro primary: i
compound: CC1COC2(CCN(c3nc(=O)c4cc(C(F)(F)F)cc([N+](=O)[O-])c4s3)CC2)O1 (stereo not drawn)
  nsP2pro primary: -16%
compound: CCCCNC(=O)c1ccccc1NC(=O)CN(c1ccccc1)S(=O)(=O)N(C)C
  nsP2pro primary: -15%
compound: Nc1c(-c2ccccc2)nc(Cl)c2c(O)n[nH]c(=O)c12
  nsP2pro primary: 9.9µM*
compound: CCNc1nc2c(ncn2[C@H]2C[C@H](O)[C@@H](CO)O2)c(=O)[nH]1
  nsP2pro primary: 16%
compound: N#Cc1ccc(Oc2ccc3c(c2)COB3O)cc1
  nsP2pro primary: 8%&-8%&-2%
compound: CC(C)NC(=O)OC[C@H]1C[C@@H]2CCN1C[C@@H]2c1cc(C2CCCC2)nc(-c2ccncc2)n1
  nsP2pro primary: 5µM*
compound: Nc1ncnc2c1c(-c1cnc3[nH]ccc3c1)nn2C1CCCC1
  nsP2pro primary: -27%

compound: CCOc1ccc(NC(=O)Nc2ccc(-c3nc4ccccc4[nH]3)cc2)cc1
  nsP2pro primary: i
compound: CC(C)n1c(/C=C/[C@H](O)C[C@H](O)CC(=O)O)c(-c2ccc(F)cc2)c2ccccc21
  nsP2pro primary: -14%&-14%
compound: COc1ccccc1N1CCN(C(=O)c2cc(-c3ccccc3O)on2)CC1
  nsP2pro primary: -7%
compound: C[C@@H](c1ccccc1)N1C(=O)[C@@H]2CN(C(=O)CC3(CC(=O)O)CCCC3)CCN2C1=O
  nsP2pro primary: -3%[39.2 µM]
compound: Cc1ccc(C)c(S(=O)(=O)c2nnn3c2nc(NC2CCCCC2)c2sccc23)c1
  nsP2pro primary: -18%
compound: Cc1cc(C)nc(NC(=S)N2CCN(c3ccccc3C#N)CC2)c1
  nsP2pro primary: 2%
compound: C=C1C(=O)CC2OC2(C)CC2OC(=O)C(=C)C2C(O)C1OC(=O)/C(C)=C\C (stereo not drawn)
  nsP2pro primary: 18%
compound: CCOc1cccc2cc(-c3cn4c(n3)sc3ccccc34)c(=O)oc12
  nsP2pro primary: -22%
compound: CCOc1ccc(NC(=O)Nc2ccc3snnc3c2)cc1
  nsP2pro primary: -3%
compound: O=C(Nc1ccc2c(c1)OCCO2)c1cccn(Cc2cccc([N+](=O)[O-])c2)c1=O
  nsP2pro primary: -11%
compound: CNC(=O)[C@@H](NC(=O)[C@H](CCCc1ccccc1)[C@H](C)N(O)C=O)C(C)(C)C
  nsP2pro primary: -9%
compound: COc1ccccc1N1CCN(CC[C@H]2CN(C(=O)NC3CCCCC3)CC[C@H]2CC(=O)O)CC1
  nsP2pro primary: i
compound: COc1ccc(-c2nnc3n2N=C(c2cc(OC)ccc2OC)CS3)cc1
  nsP2pro primary: i
compound: CCc1c(C(=O)C(N)=O)c2c(OCC(=O)OC)cccc2n1Cc1ccccc1
  nsP2pro primary: -12%
compound: COC(=O)C[C@@](O)(CCC(C)(C)O)C(=O)O[C@@H]1C(OC)=C[C@]23CCCN2CCc2cc4c(cc2[C@@H]13)OCO4
  nsP2pro primary: ?
compound: CN(C)Cc1nnc(C2CC(NC(=O)c3nc4ccccc4[nH]3)C2)n1C (stereo not drawn)
  nsP2pro primary: i

Two compounds picked at random from those above:
compound: CN(C)Cc1nnc(C2CC(NC(=O)c3nc4ccccc4[nH]3)C2)n1C (stereo not drawn)
  nsP2pro primary: i
compound: Cc1ccc(C)c(S(=O)(=O)c2nnn3c2nc(NC2CCCCC2)c2sccc23)c1
  nsP2pro primary: -18%
